# Six1-Eya2 blk – inhibitors of human Six1/Eya2 interaction | AlphaScreen GST-Six1/His-Eya2 binding, biochemical; active compounds read low; control for the full effect not named in the record | activity change, % (test concentration not listed) | hit rate 0.56% among 360,000 | AID 651725; in the data active = activity change below about -65%; inconclusive = about -30% to -65%; inactive = above about -30%; also: % is scaled to controls: 0 for no effect and ±100 for the full control effect
#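 GST-Six1 + His-Eya2 (5X stock: 250/500 nM); Tris pH 8.0, 300 mM NaCl, 0.05% BSA, 0.02% Tween 20; GSH donor/Ni acceptor beads; 1 h 37 °C dark; AlphaScreen readout.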
# TRPML1 inh – inhibitors of human TRPML1 channel. Q9GZU1. TRPML1-inducible cells, Ca2+ dye fluorescence, FDSS; active compounds read low; inhibition of EC80 agonist-evoked calcium signal. activity change, negative = inhibition, % (no concentration beside the values). hit rate 0.02% among 390,000; in the data active means activity change below about -50%; inconclusive means about -30% to -50%; inactive means above about -30%;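 also: stimulus is agonist 54-4 at its EC80 concentration; % is scaled to controls: 0 for no effect and ±100 for the full control effect; compound concentration not given in the record; the text of the record puts the active cut at -80%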
# Target sequence (Q9GZU1 whole entry, looked up): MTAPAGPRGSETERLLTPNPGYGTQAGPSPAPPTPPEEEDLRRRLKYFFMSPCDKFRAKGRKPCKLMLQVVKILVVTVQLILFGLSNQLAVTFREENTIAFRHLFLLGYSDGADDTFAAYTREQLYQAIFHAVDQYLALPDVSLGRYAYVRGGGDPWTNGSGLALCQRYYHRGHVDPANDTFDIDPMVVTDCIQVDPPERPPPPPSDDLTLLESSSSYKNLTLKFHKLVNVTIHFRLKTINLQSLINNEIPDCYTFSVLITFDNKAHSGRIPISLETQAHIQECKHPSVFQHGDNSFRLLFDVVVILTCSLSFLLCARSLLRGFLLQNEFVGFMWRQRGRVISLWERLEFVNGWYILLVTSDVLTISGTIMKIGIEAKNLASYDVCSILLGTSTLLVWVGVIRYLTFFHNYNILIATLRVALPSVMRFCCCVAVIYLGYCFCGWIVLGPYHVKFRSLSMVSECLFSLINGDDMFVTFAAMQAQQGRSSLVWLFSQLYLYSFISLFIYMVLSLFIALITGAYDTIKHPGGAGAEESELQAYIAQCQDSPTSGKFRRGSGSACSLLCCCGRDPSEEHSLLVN
#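 TRPML1-DL cells, Tet-induced overnight (~16 h, 37 °C) at 1,500 cells/well, were loaded with Ca8 no-wash dye plus quencher for 45-90 min at room temperature. Compounds were pinned during FDSS kinetic reading; agonist 54-4 at EC80 (4 uM final) then added.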
# CtBP-E1A blk – blocks the CtBP interaction with E1A. AlphaScreen GST-E1A/His-CtBP binding, 1536-well; active compounds read low; control for the full effect not named in the record. activity change, % (concentration not given with the values). hit rate 0.49% among 340,000. AID 651724; in the data active means activity change below about -65%; inconclusive means about -30% to -65%; inactive means above about -30%; also: % is scaled to controls: 0 for no effect and ±100 for the full control effect
#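 AlphaScreen with 125 nM GST-E1A and 125 nM His-CtBP (5X stocks) in Tris pH 8.0, 300 mM NaCl, BSA, Tween 20, TCEP. Compounds preincubated 2 h at 37 deg C, then glutathione donor/nickel acceptor beads added for 1 h at 37 deg C in dark.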
# PINK1 expr mod – PINK1 expression modulation. PINK1 immunofluorescence, high-content cytometry, 24 h. Potency, µM (doses to about 76.6 µM), inactives show top-dose activation (PINK1 increase), hits mostly activators. hit rate 0.2% among 410,000. AID 624263; active = well fitted activation curve with a large enough effect; inconclusive = small, poorly fitted or top-dose-only effect; inactive = flat fitted curve, though single readings scatter; cell line not stated here;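 also: potency is read from the fitted curve at half-maximal effect; % of control where 0% means no effect; nearly all actives have a fitted effect of over 65% in size; a mitochondrial uncoupler was the plate control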
#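 PINK1 protein level read as immunofluorescence by microplate cytometer in a fixed, stained stable cell line after 24 h exposure to five compound concentrations, with CCCP as control.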
# D2 ag – agonists of human D2 dopamine receptor (beta-arrestin); P14416; DiscoveRx PathHunter D2 beta-arrestin, luminescence, 90 min; 100% = 57 uM dopamine signal; activation, % (test concentration not listed); hit rate 0.084% among 360,000; AID 624465; in the data active = activation above about 40%; inconclusive = about 15% to 40%; inactive = below about 15%; also: compound concentration not given in the record; the text of the record calls up to 30% inactive
# Target sequence (P14416 whole entry, looked up): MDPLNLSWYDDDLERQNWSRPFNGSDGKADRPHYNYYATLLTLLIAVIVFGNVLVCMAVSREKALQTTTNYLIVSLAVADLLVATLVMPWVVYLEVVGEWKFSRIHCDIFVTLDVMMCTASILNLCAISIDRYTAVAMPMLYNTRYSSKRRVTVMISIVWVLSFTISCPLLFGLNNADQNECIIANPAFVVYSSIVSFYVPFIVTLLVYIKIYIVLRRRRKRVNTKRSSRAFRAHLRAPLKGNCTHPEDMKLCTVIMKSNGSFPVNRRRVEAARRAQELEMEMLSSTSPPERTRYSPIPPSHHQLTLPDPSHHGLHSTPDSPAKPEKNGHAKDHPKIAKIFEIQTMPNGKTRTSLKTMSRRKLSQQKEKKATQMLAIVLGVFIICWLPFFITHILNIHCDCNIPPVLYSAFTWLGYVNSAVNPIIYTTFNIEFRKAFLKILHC
#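 Agonist mode: compounds alone added to overnight-plated D2 PathHunter cells for 90 min at 37 C, with 57 uM final dopamine (EC100) defining full response. Beta-arrestin recruitment detected by chemiluminescent reagent, read after 1 h at ambient temperature.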
# TRPML1 agonist – human mucolipin-1 channel agonism; activation, % (test concentration not listed); hit rate 0.12% among 410,000; TRPML1-expressing cells, Ca2+ dye fluorescence, FDSS; host cell line not named in the record; reference of the full effect not given here; AID 624414; in the data active = activation above about 50%; inconclusive = about 30% to 50%; inactive = below about 30%; also: 0% is about no effect; the text of the record puts the active cut at 80%
#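 Agonist activity was taken from a 110 s kinetic Ca2+ dye read on the FDSS after pinning compounds onto TRPML1-DL cells. The cells were seeded at 1,500/well with Tet inducer, incubated about 16 h, then dye-loaded at room temperature.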
# * = called active by the depositor; u = inconclusive; x = not tested or not shown; & = joins results of further samples; [ ] = dose if it differs, or a comment.
SMILES,Six1-Eya2 blk,TRPML1 inh,CtBP-E1A blk,PINK1 expr mod,D2 ag,TRPML1 agonist
O=C(CN1CCN(S(=O)(=O)N2CCCCCC2)CC1)Nc1ccc(F)cc1,-13.2,13.4,-1.4,1.1%,-4.3,-0.9
COc1ccc2cc3cc(C(=O)N4CCN(c5ccccc5F)CC4)oc3nc2c1,x,21.1,x,1.5%,x,-1.1
COc1ccccc1-n1c(SCC(=O)O)nc2sc3c(c2c1=O)CCC3,0.5,3.7,5.6,1.1%,1.0,-0.4
Brc1ccc(-c2nnc(-c3ccccc3Br)o2)cc1,4.8,-21.4,-0.1,-0.9%[38.3 µM],0.7,2.0
O=C(COC(=O)c1ccccc1NS(=O)(=O)c1cccs1)NCC12CC3CC(CC(C3)C1)C2,1.1,-0.4,0.6,u,2.9,0.7
CCOc1ccc(S(=O)(=O)N2CCOCC2)cc1NC(=O)C1CCC1,6.2,-5.6,6.7,-1.1%,-3.0,7.5
CC1CCN(C(=O)c2[nH]cnc2C(=O)Nc2cccc(Cl)c2)CC1,-18.9,2.1,-5.8,5.1%,-2.9,1.2
Cc1cc(C(=O)N2CCc3ccccc3C2)c(C)o1,-0.2,0.3,1.6,0.3%,-1.1,-0.6
O=C(CCNC(=O)c1ccc([N+](=O)[O-])cc1)Nc1ccccc1N1CCOCC1,-0.5,-19.9,15.0,2.1%,-3.6,0.3
CC(C)C(=O)Nc1ccc2c(c1)C(=O)NC2=O,1.7,3.7,x,-0.3%,4.7,0.0
O=C(Nc1ccc(Br)cn1)C1CCN(S(=O)(=O)c2cccs2)CC1,6.3,5.4,-1.1,1.4%,4.2,0.3
CCS(=O)(=O)c1nc(S(=O)(=O)c2ccc(C)cc2)c(N2CCOCC2)s1,5.4,-5.2,3.4,-1.8%,1.1,-0.3
CCN(CC(=O)NCc1ccc(Cl)cc1)C(=O)c1ccc(S(=O)(=O)NCc2ccco2)cc1,-13.2,-7.1,-1.5,0.1%,6.9,0.3
CCCN1C(C)C(C(=O)OCC)=CN(Cc2cccc(I)c2)S1(=O)=O (configuration not stated),33.8,2.7,25.6,1.4%,-2.6,1.1
CSc1nnc(C)c(=O)n1COC(=O)c1ccc(S(=O)(=O)N(C)C)cc1,3.3,-7.5,-0.4,2.2%,-0.7,-0.1
Cn1c(SCC(=O)N2CCCC2)nnc1-c1ccc(S(=O)(=O)N2CCCC2)cc1,7.1,10.3,5.0,6.3%[38.3 µM],-0.7,0.5
COc1ccc(C(=O)Nc2c(N)nc(SCC(=O)Nc3ccc(C(C)=O)cc3)[nH]c2=O)cc1,-14.2,21.7,-2.1,4.6%,-0.7,0.8
C=CCSC1=NNC(c2ccc(C(C)(C)C)cc2)=NN1,8.9,25.1,5.2,0.9%,-3.3,-0.2
Cc1ccc(S(=O)(=O)c2c(O)cc(C)c(NS(=O)(=O)c3ccc(Cl)cc3)c2C)cc1,x,53.4,x,5.7%,x,-0.5
CC(C)c1c(O)nc(SCCN2CCOCC2)[nH]c1=O,5.7,-14.9,3.7,3.1%[38.3 µM],-1.4,-0.3

# 7 of the entries above in order of the PINK1 expr mod value, falling:
SMILES,PINK1 expr mod
Cc1ccc(S(=O)(=O)c2c(O)cc(C)c(NS(=O)(=O)c3ccc(Cl)cc3)c2C)cc1,5.7%
CC1CCN(C(=O)c2[nH]cnc2C(=O)Nc2cccc(Cl)c2)CC1,5.1%
CSc1nnc(C)c(=O)n1COC(=O)c1ccc(S(=O)(=O)N(C)C)cc1,2.2%
CCCN1C(C)C(C(=O)OCC)=CN(Cc2cccc(I)c2)S1(=O)=O (configuration not stated),1.4%
O=C(CN1CCN(S(=O)(=O)N2CCCCCC2)CC1)Nc1ccc(F)cc1,1.1%
CC(C)C(=O)Nc1ccc2c(c1)C(=O)NC2=O,-0.3%
CCOc1ccc(S(=O)(=O)N2CCOCC2)cc1NC(=O)C1CCC1,-1.1%

# Continued.
SMILES,Six1-Eya2 blk,TRPML1 inh,CtBP-E1A blk,PINK1 expr mod,D2 ag,TRPML1 agonist
CCc1nc(C)c(C#N)c2cc(OC)c(OC)cc12,-0.6,5.1,1.0,0.2%,-1.6,1.6
O=C(CSc1nc2ncccc2[nH]1)c1ccc2c(c1)OCO2,4.5,13.9,4.0,0.5%,-3.2,2.8
CCOC(=O)Cc1csc(SCc2nc3sc4c(c3c(=O)[nH]2)CCC4)n1,1.5,8.6,-0.7,3.0%,0.8,2.8
Nc1cc(OC(=O)c2ccco2)nn1S(=O)(=O)c1ccc(F)cc1,-0.3,-0.9,1.7,-0.7%,0.9,0.8
Cc1ccc(-n2ncc(C(=O)N3CCN(c4ccccn4)CC3)c2C2CCN(C(=O)OC(C)(C)C)CC2)cc1C,x,-3.7,x,-0.2%,x,0.5
CN(C)S(=O)(=O)c1ccc(C(=O)N2CCN=C2SCc2cccnc2)cc1,9.0,-13.0,-3.6,1.6%,-0.3,-1.1
CCCS(=O)(=O)c1nc(S(=O)(=O)c2ccc(C)cc2)c(N2CCC(O)CC2)s1,6.4,25.5,-1.0,-1.0%,-0.7,0.1
Cc1cc(C)n(-c2nc3ccccc3s2)n1,26.4,4.8,0.0,5.1%,1.8,2.4
CCCCCCC(=O)NCC(=O)OCC(=O)c1ccccc1,5.8,-12.2,5.0,4.6%,-3.0,-0.8
COc1cc(OC)cc(C(=O)NC2CCN(C(=O)N3c4ccccc4Sc4ccccc43)CC2)c1,-9.9,-4.2,13.2,x,0.4,1.2
CC(C)CN(CC(C)C)C(=O)COn1nnc2ccc(S(=O)(=O)N3CCOCC3)cc21,1.5,-2.6,-7.8,3.0%,-4.7,2.4
CCCc1cc(=O)oc2cc(OCC(=O)NC3CC(C)(C)NC(C)(C)C3)ccc12,0.7,-2.2,-2.9,0.8%,-1.1,-0.8
Cn1cccc1Cc1nnc(SCC(N)=O)n1CCc1ccccc1,-4.3,5.6,2.1,0.3%,0.4,-0.1
COc1ccc(NC(=O)CNC(=O)C23CC4CC(CC(C4)C2)C3)c(OC)c1,10.8,-1.5,2.9,3.7%,-4.4,-0.9
Cc1ccc2oc(-c3cc(NC(=O)c4ccco4)ccc3Cl)nc2c1,x,0.5,x,6.1%,x,-0.5
Cc1cc(N=Nc2ccccc2C(=O)O)c(C)c(C)c1O,-6.7,x,-8.1,-0.5%,3.1,x
CC(C)(C)/C=N/NC(=O)CNC(=O)c1ccc2c(c1)OCCO2,-2.9,13.4,x,0.2%,-5.6,1.3
CCN(CC(=O)Nc1ccc(NC(C)=O)cc1)C(=O)c1cccc(S(=O)(=O)N2CCc3ccccc3C2)c1,-0.5,-20.3,4.5,5.5%,-7.3,-0.4
CCOc1ccc(CCN2C(=S)N([C@@H](CC(C)C)CN3CCC[C@@H]3CN3C(=S)NC[C@@H]3CC(C)C)C[C@@H]2Cc2ccc(O)cc2)cc1,-10.9,24.3,-10.9,14.5%,-3.7,-0.5
COC(=O)C1=C(C)n2cnnc2NC1c1ccc(Cl)cc1 (configuration not stated),-0.2,-4.4,1.8,2.2%,-5.6,0.8

# Compound profiles, from the list above.
# `CCOc1ccc(CCN2C(=S)N([C@@H](CC(C)C)CN3CCC[C@@H]3CN3C(=S)NC[C@@H]3CC(C)C)C[C@@H]2Cc2ccc(O)cc2)cc1` is listed as Six1-Eya2 blk: -10.9; TRPML1 inh: 24.3; CtBP-E1A blk: -10.9; PINK1 expr mod: 14.5%; D2 ag: -3.7; TRPML1 agonist: -0.5
# `Cc1ccc2oc(-c3cc(NC(=O)c4ccco4)ccc3Cl)nc2c1` is listed as Six1-Eya2 blk: x; TRPML1 inh: 0.5; CtBP-E1A blk: x; PINK1 expr mod: 6.1%; D2 ag: x; TRPML1 agonist: -0.5
# `CCCCCCC(=O)NCC(=O)OCC(=O)c1ccccc1` is listed as Six1-Eya2 blk: 5.8; TRPML1 inh: -12.2; CtBP-E1A blk: 5.0; PINK1 expr mod: 4.6%; D2 ag: -3.0; TRPML1 agonist: -0.8

# Remaining list, next part
SMILES,Six1-Eya2 blk,TRPML1 inh,CtBP-E1A blk,PINK1 expr mod,D2 ag,TRPML1 agonist
O=C1NCC(NC(=O)C(F)(F)F)c2cc3c(cc21)OCO3 (configuration not stated),-18.5,-2.4,2.9,0.5%,1.2,0.0
C#CCNC(=O)C1=C[C@@H](C2CC2)C[C@@H](OCCCCO)O1,2.7,6.3,-1.2,-1.1%,-3.2,1.5
COc1ccc(C)cc1NC(=O)CN1C(=O)COc2ccc(S(=O)(=O)N3CCOCC3)cc21,1.6,-10.9&42.0,2.4,-1.3%&0.2%,-2.8,-1.0&1.6
Cc1ccc(S(=O)(=O)NCCc2csc3nc(-c4ccccc4F)nn23)cc1C,x,4.5,x,1.1%,x,1.2
COC(=O)c1ccc(Oc2nc3c(c(=O)n(C)c(=O)n3C)n2C(C)C)cc1,x,12.8,x,0.5%,x,-0.7
CCCC(=O)Nc1ccc2c(c1)nc(CCN1CCCCC1)n2C,-5.0,-9.6,1.4,-0.2%,2.2,1.4
Nc1c(C(=O)NCC2CCCO2)sc2nc3c(c(-c4ccco4)c12)CC/C3=C\c1ccco1 (configuration not stated),u,32.2,-26.4,1.7%,-2.5,0.0
Cc1cccc(OCCC(=O)Nc2c(C)n(C)n(-c3ccccc3)c2=O)c1,-0.3,16.0,2.9,-1.3%,-1.1,0.3
O=C(O)COc1ccc(/C=N/Nc2nc(Nc3ccccc3)nc(N3CCCCC3)n2)cc1,-20.4,1.2,-7.8,0.1%,2.4,-0.9
Cc1ccccc1C(=O)N1CCC(C(=O)NC(C)c2ccc(-n3ccnc3)cc2)CC1 (configuration not stated),1.5,-20.6,3.6,0.7%,-0.1,-0.2
CC(C)(C)NC(=O)C1Cc2ccccc2CN1 (configuration not stated),24.1,-14.2,6.8,0.2%,-4.0,-0.3
CCOc1ccc(C(=O)OC(C)C(=O)N2CCN(Cc3ccccc3)CC2)cc1 (configuration not stated),0.0,3.8,6.8,1.0%,0.6,-0.5

# Source: PubChem BioAssay (National Center for Advancing Translational Sciences (NCATS))
